# Screening data as filed in PubChem.
# nsP2pro primary: Primary qHTS for inhibitors of NSP2Pro chikungunya virus (CHIKV). 31,000 tested, 1.1% active. Potency, µM (highest dose often 24.9 µM), inactives show at the top dose activity change, negative = inhibition, usual class: inhibitors. Polyprotein P1234 (Chikungunya virus (strain S27-African prototype)), Q8JUX6. AID 1964107, 2024. FRET peptide cleavage, nsP2pro, fluorescence 1 h; active means well fitted inhibition curve with a large enough effect; inconclusive means small, poorly fitted or top-dose-only effect; inactive means no such curve, though single readings can be large or run the other way; also: nearly all actives have a fitted effect of over 60% in size; a reference inhibitor and vehicle were the controls
# * marks the source's active call; other numbers are inactive results; i = inactive; ? = inconclusive; & = joins results of further samples; [ ] = remark or other dose. % is scaled to controls: 0 for no effect and ±100 for the full control effect; potency is read from the fitted curve at half-maximal effect. An excerpt. The share of hits here may be higher or lower than overall.
SMILES,nsP2pro primary
Cc1ccc(-c2cn3nc(N4CCC(C(=O)Nc5ccccc5C)CC4)sc3n2)cc1,-13%
F[C@@H]1CN(C2CCC2)C[C@@H]1OCc1nc2ncccc2[nH]1,i
COc1ccccc1NS(=O)(=O)c1ccc2c(c1)CCC(=O)N2,i
Cn1nccc1C(=O)NCc1ccc2c(c1)CCN2C(=O)c1ccc(F)cc1,-19%
CCCCNC(=O)C1CCN(c2nc3ccc(C)cc3[nH]2)CC1,-11%
Cc1ccc(C)c(Cn2c(=O)n(CCCC(=O)NCc3ccc4c(c3)OCO4)c(=O)c3sccc32)c1,-12%
C=C(C)C1CCC(C)C12CC(O)C1(C)OC1C2OC(=O)C(N)CCC(=O)O (centres undefined),?
CC1CCCN(S(=O)(=O)c2cc3c(cc2Cl)NC(=O)CO3)C1 (centres undefined),-8%
C=C(C)[C@@]1(O)C[C@@]2(C)C(=CC1=O)CC[C@@H](O)[C@@H]2C,?
COC[C@@H]1CN(c2ncccn2)C[C@H]1C(=O)NCc1ccccc1OC,5%
CNC(=O)[C@@H](Cc1ccccc1)N1CCC[C@H]1C(=O)NCC1CC1,-2%[39.2 µM]
C=C(C(=O)O)C1CCC2(C)CCC(O)C(C)(O)C2C1 (centres undefined),3%
Cc1ccc(NS(=O)(=O)c2cc3c(cc2N2CCCCC2)NC(=O)CC3)cc1C,i
Cc1cccc(C(=O)N2CCC(c3nc(C4CCOCC4)no3)C2)c1 (centres undefined),i
COC(=O)c1c(NC(=O)CCCOc2cccc(C)c2)sc2c1CCC2,-16%
Cc1cccc(N2CCN(C(=O)c3ccc(NC(=O)c4nsc5ccccc45)cc3)CC2C)c1 (centres undefined),3%
Cc1cc(C)cc(OCC(=O)N(Cc2ccc(C)o2)C2CCS(=O)(=O)C2)c1 (centres undefined),-31%
O=C(NC1CCCC1)c1ccc2c(=O)n(Cc3ccccc3)c(SCc3ccc([N+](=O)[O-])cc3)nc2c1,-28%
CC(C)(C)NC(=O)[C@@H]1C[C@@H]2CCCC[C@H]2CN1C[C@@H](O)[C@H](Cc1ccccc1)NC(=O)[C@H](CC(N)=O)NC(=O)c1ccc2ccccc2n1,-9%
CN(Cc1cccc(-c2ccncc2)c1)C(=O)Oc1ccc(-c2ccc(C(N)=O)cc2)cc1,?
Cc1c(P(=S)(c2ccccc2)c2ccccc2)c2ccccc2n1C,i
Cc1cccc(Oc2nc3c(c(=O)n(C)c(=O)n3C)n2C)c1C,-11%
O=C(COCc1cc(-c2cccs2)on1)N1CCN(c2ccccc2)CC1,-13%
CO[C@H]1O[C@@H]2O[C@@]3(C)CC[C@H]4[C@H](C)CC[C@@H]([C@H]1C)[C@@]24OO3,-7%&-4%
CC1OC(O[C@H]2CC[C@@]3(C)C(CC[C@]4(C)C3CC=C3C5CC(C)(C)CC[C@]5(C(=O)OC5OC(CO)C(OC6OC(COC7OCC(O)C(O)C7O)C(O)C(O)C6O)C(O)C5O)CC[C@]34C)C2(C)C)C(O)C(O)C1OC1OCC(OC2OCC(O)C(O)C2O)C(O)C1O (some centres undefined),77%[5.1 µM]

# Reformatted: 4 of the compounds above
CO[C@H]1O[C@@H]2O[C@@]3(C)CC[C@H]4[C@H](C)CC[C@@H]([C@H]1C)[C@@]24OO3
  nsP2pro primary: -7%&-4%

CN(Cc1cccc(-c2ccncc2)c1)C(=O)Oc1ccc(-c2ccc(C(N)=O)cc2)cc1
  nsP2pro primary: ?

F[C@@H]1CN(C2CCC2)C[C@@H]1OCc1nc2ncccc2[nH]1
  nsP2pro primary: i

Cc1ccc(NS(=O)(=O)c2cc3c(cc2N2CCCCC2)NC(=O)CC3)cc1C
  nsP2pro primary: i

# An excerpt from above in order of molar mass, descending.
SMILES,nsP2pro primary
Cc1ccc(C)c(Cn2c(=O)n(CCCC(=O)NCc3ccc4c(c3)OCO4)c(=O)c3sccc32)c1,-12%
CCCCNC(=O)C1CCN(c2nc3ccc(C)cc3[nH]2)CC1,-11%
C=C(C(=O)O)C1CCC2(C)CCC(O)C(C)(O)C2C1 (centres undefined),3%

# (continued)
SMILES,nsP2pro primary
O=C(Nc1cc(F)ccc1F)C1CCN(C(=O)c2cnn(-c3ccccc3)c2-n2cccc2)CC1,-7%
O=C(O)[C@H]1C[C@H](C(=O)NCc2ccccn2)CN(Cc2ccccc2)C1,i
CCOC(=O)CSc1nc2ccc(NC(=O)c3ccc(Cl)cc3)cc2s1,?
O=C(CSCc1ccccc1Cl)N1CCN(c2ccc(F)cc2)CC1,5%
COc1cc(/C=C/C(=O)OC2[C@H](O)CC(O)(C(=O)O)C[C@H]2O)ccc1O (some centres undefined),-6%
COc1ccc(N(C(=O)c2cccc(C)c2)S(=O)(=O)c2ccc3c(c2)n(C)c(=O)n3C)cc1,-21%
Cc1ccc(NS(=O)(=O)c2cc3c(cc2NCC(C)(C)O)NC(=O)CC3)cc1C,?
CC12CCC3c4ccc(O)cc4CCC3C1CC(OC1OC(C(=O)O)C(O)C(O)C1O)C2O (centres undefined),21%
COC(=O)c1nc(C(F)(F)F)n2c1CN(C(=O)C[C@H](N)Cc1cc(F)c(F)cc1F)CC2,0%
O=C(CSc1nc(-c2ccc(F)cc2)nc2c1Cc1ccccc1O2)Nc1ccc(F)cc1,i
CCCN(C(=O)c1coc(=O)c2ccccc12)c1ccccc1C,-20%
Cc1ncc([N+](=O)[O-])n1CCOC(=O)c1ccccc1,-6%[39.2 µM]
CC(C)N1C[C@@H](COCc2ccccc2)[C@H](c2ccccc2)[S+]1(=O)[O-],-5%
Cc1ccc(C)c(N2CCN(CCCNC(=O)c3ccc4nc(C(C)C)oc4c3)CC2)c1,-12%
COc1c(C(C)C)c(O)c(O)c2c1C(OC)[C@H]1OC(=O)[C@@]23CCCC(C)(C)[C@H]13 (some centres undefined),-5%
COc1ccc(-c2nc(CCNC(=O)c3cccs3)cs2)cc1,-3%
COc1cc(C2CC(=O)c3c([nH]c(C(=O)OC4CCCC4)c3C)C2)cc(OC)c1OC (centres undefined),-9%
N#CC(CCCN1CCN(/N=C/c2cccnc2)CC1)(c1ccccc1)c1ccccc1,1%
CN(C)CCc1c[nH]c2ccc(Cn3cncn3)cc12,-13%
Cc1cc(F)ccc1NC(=O)C1CCN(S(=O)(=O)c2ccc3c(c2)CCCC(=O)N3)CC1,-16%
CCCC(=O)N(c1ccc2oc(C)c(C(C)=O)c2c1)S(=O)(=O)c1ccc(C)cc1,-12%
CCOc1ccc(CCNC(=O)c2cc3sccc3n2Cc2cccc(C)c2)cc1OCC,3%
COc1ccc(CNC(=O)CCCn2nc(C)n3c(cc4sccc43)c2=O)cc1,-26%
Cc1cc(C)n(Cc2ccc(C(=O)N3CCCC(CO)CCNC(=O)CC3)o2)n1 (centres undefined),2%
COc1ccc(OCC(O)CN2CCC(=O)N(CC3CC3)Cc3cc(OC)ccc32)cc1 (centres undefined),?

# (next part)
SMILES,nsP2pro primary
COc1ccc(C(=O)Nc2ccc3c(c2)CCCN3S(=O)(=O)c2ccc(C)cc2)c(OC)c1,-14%
CN(Cc1ccco1)c1ncnc2ccc(-c3ccc4c(ccn4C)c3)cc12,5%
N=c1ccn2c(n1)O[C@@H]1[C@@H](O)[C@H](CO)O[C@@H]12,-4%
NC(=O)c1c(-c2ccccc2)no[n+]1[O-],-16%
CN1CCN(c2ccc(NC(=O)c3cccs3)cn2)CC1,-10%
CC1(C(=O)Nc2ccccc2)CN(Cc2ccccc2)Cc2ccc(N3CCOCC3)nc21 (centres undefined),i
O=C(CN1C(=O)CCc2cc(S(=O)(=O)N3CCOCC3)ccc21)NCc1ccccc1Cl,-27%
COc1ccc(CCNC(=O)c2c(C)oc3nc(C)nc(N4CCOCC4)c23)cc1OC,-23%
CCC(C)NC(=O)Cn1c(=O)n(Cc2ccc(C(=O)NCCCOC)cc2)c(=O)c2ccccc21 (centres undefined),-13%
Cc1nnc([C@H]2CCN(C3CCN(C)CC3)C2)o1,i
CCOC(=O)Cn1c(=O)cc(C(F)(F)C(F)(F)F)c2c(C)nn(CC)c21,-20%
CCNC(=O)N1CCC(Oc2ncccc2C(=O)N2CCCCC2)C1 (centres undefined),-14%
O=C(NCC(c1cccs1)S(=O)(=O)c1cccs1)c1cccc(F)c1 (centres undefined),-24%
C=CCNc1nc(CC)nc2c1CCN(C(=O)c1cn(C)nc1C)CC2,i
CCCCc1nn(CC(=O)N2CCOC(c3ccccc3)C2)c(=O)n1CC (centres undefined),-24%
Cc1cc(=O)c(C(=O)N[C@@H](C(=O)N[C@@H]2C(=O)N3C(C(=O)O)=C(CSc4nnnn4C)CS[C@H]23)c2ccc(O)cc2)c[nH]1,-2%
COc1ccc(N2CCN(CCCNC(=O)c3cnn(-c4ccc(F)cc4)c3-n3cccc3)CC2)cc1,-7%
COc1ccc(CCNC(=O)CCc2c(C)nc3c(c(C)nn3-c3ccccc3)c2C)c(OC)c1,4%
CC(C)(Sc1cc(C(C)(C)C)c(O)c(C(C)(C)C)c1)Sc1cc(C(C)(C)C)c(O)c(C(C)(C)C)c1,22%&9%&21%
Cc1cccc(-c2nc3c(cnn3-c3ccccc3)c(=O)n2-c2ccc(Cl)cc2)c1,?
CC(C)CC(NC(=O)CNC(=O)C(Cc1ccc(O)cc1)NC(=O)C(CO)NC(=O)C(Cc1c[nH]c2ccccc12)NC(=O)C(Cc1cnc[nH]1)NC(=O)C1CCC(=O)N1)C(=O)NC(CCCN=C(N)N)C(=O)N1CCCC1C(=O)NCC(N)=O (centres undefined),16%
CCSc1oc(-c2cccs2)nc1S(=O)(=O)c1ccc(Br)cc1,34%[activator]
CC(=O)c1ccc(NC(=O)N2C[C@@H]3C[C@H](C2)c2ccc(NS(=O)(=O)Cc4ccccc4)c(=O)n2C3)cc1,15%
Cc1ccc(NC(=O)CN(C)S(=O)(=O)c2ccc3nc(C)sc3c2)c(C)c1,-9%
CC(=O)N1CCc2cc(CNS(=O)(=O)c3ccc(Cl)s3)ccc21,-16%

# Carrying on:
SMILES,nsP2pro primary
CCC(C(=O)NCc1ccc(OC)c(OC)c1)n1nc(C)c2c(C)n(-c3ccc(C)cc3)nc2c1=O (centres undefined),-6%
CC(C)NC[C@H](O)COc1ccc(CCOCC2CC2)cc1,-3%
C[C@H](C(=O)N1Cc2ccccc2CC2(CCN(Cc3ccncc3)C2)C1)c1ccccc1 (some centres undefined),-1%
CCOc1ccc(CNC(=O)C2CCN(S(=O)(=O)c3cn(C)cn3)CC2)cc1OC,-15%
Cc1ccc(CCNC(=O)CS(=O)Cc2nc(-c3ccccc3Cl)oc2C)cc1 (centres undefined),-15%
NS(=O)(=O)c1ccc(Nc2nc(-c3ccccc3)cs2)cc1,-8%
Cn1nc(-c2cccs2)cc1[C@H]1CN2CC[C@H]1C[C@@H]2CNC(=O)Nc1ccccc1,-3%[39.2 µM]
Cn1nnc2c(C(N)=O)ncn2c1=O,-9%
CCc1ccc(NC(=O)Cn2c(=O)n(Cc3nc(C)no3)c(=O)c3cc4c(cc32)OCO4)cc1,-26%
O=S(=O)(NC[C@H]1C[C@@H]2CCN1C[C@@H]2CN1CCOCC1)c1ccccc1,i
CCCC(=O)N1CCC(O)(c2ccccc2)[C@H](N2CCCC2)C1 (some centres undefined),-22%
Cc1cnc(-c2ccccc2)n1C1CCN(S(C)(=O)=O)CC1,i
Cc1ccccc1OCc1nc(C2CN(C(=O)NC(C)C)C2)no1,5%
O=C(OCC#CCSc1nnc(-c2cccc3ccccc23)o1)c1ccccc1,i
Cc1nc(CNC(=O)[C@H]2CCC[C@@H](O)C2)nc2c1CCCC2,1%
O=C1Nc2ccccc2C1Cc1cc(Cl)c(O)c(Cl)c1 (centres undefined),-4%
CCCN(CC1CCOC1)S(=O)(=O)c1cc(F)ccc1C (centres undefined),?
COc1cc2ncnc(Nc3ccc(O)c(Br)c3)c2cc1OC,43%[activator]
Cc1c2cnn(-c3ccccc3)c(=O)c2c(C)n1CC(=O)NCc1ccccc1,-24%
Nc1ccc(-c2ccc(NC(=O)c3cccs3)cn2)cc1,5%
Cc1cc(=O)n(CC(=O)Nc2ccc3c(c2)OCCO3)c(N2CCc3ccccc3C2)n1,1%
Cn1cc(S(=O)(=O)N2CCCC2)cc1C(=O)N1CCN(c2cccc(Cl)c2)CC1,-18%
Cc1cnc(C2CCOCC2)n1CC1CCN(C(=O)c2cccnc2)CC1,-4%
O=C(c1cccc([N+](=O)[O-])c1)N1CCN(CCc2ccncc2)CC1,?
Fc1ccc(-c2cncc(CN3CCN(c4cccc5c4OCCO5)CC3)c2)cc1,15%

# (cont.)
SMILES,nsP2pro primary
COc1cccc(Cn2c(=O)n(-c3cc(C)cc(C)c3)c(=O)c3oc4ccccc4c32)c1,-11%
CCN(Cc1ccccc1)c1ncnc2c1cnn2-c1ccc(F)cc1,-9%
O=C1CC(=O)c2c(Cl)c(Cl)c(Cl)c(Cl)c21,?
CO[C@H]1[C@H](O)[C@H](O[C@H]2CC[C@]3(C)C4CC[C@]5(C)[C@H](C6=CC(=O)OC6)CC[C@]5(O)C4CC[C@@H]3C2)O[C@@H](C)[C@@H]1O (some centres undefined),16%[10 µM]
CCCCCCC(COC(=O)c1cccnc1)(COC(=O)c1cccnc1)COC(=O)c1cccnc1,3%
Cc1cc(N2CCCCC2)nc2ccc(NC(=O)CCC(=O)N3CCN(c4cccc(Cl)c4)CC3)cc12,3%
